# ID4 SMM = binds human ID4 protein on microarray; P47928; small molecule microarray, Flag-ID4 binding, fluorescence F/B; calls only; 31,000 tested, 1.2% active; AID 624137;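 active means spot signal over background at p below 0.07 in all four prints; compounds were printed on slides so no solution concentration is given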;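 further: a binder raises fluorescence above local background on the spot; about 2 pmol printed per array spot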
# Target sequence (P47928 whole entry, looked up): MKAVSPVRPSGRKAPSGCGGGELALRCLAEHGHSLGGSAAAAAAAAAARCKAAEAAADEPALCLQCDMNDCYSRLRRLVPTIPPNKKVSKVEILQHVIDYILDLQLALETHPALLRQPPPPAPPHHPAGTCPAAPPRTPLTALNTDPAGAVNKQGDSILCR
# mut p53 SMM = binds human mutant p53 on microarray; calls only; 17,000 tested, 0.4% active; small molecule microarray binding, anti-GST fluorescence; AID 624136;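 active means compounds whose four printed spots each glow above background more than chance allows, each with a p-value under 7%; compounds were printed on slides so no solution concentration is given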;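 further: about 2 pmol printed per array spot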
# STAT3 binder = binds human STAT3 on microarray | calls only | Small molecule microarray, His-STAT3 binding, anti-His fluorescence | 17,000 tested, 0.2% active;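 active means compounds whose four printed spots each show fluorescence over background unusually high for their array block, chance value under 7%; compounds were printed on slides so no solution concentration is given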;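 further: about 2 pmol printed per array spot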
# Myc binder = binds human c-Myc on microarray; small molecule microarray, His-c-Myc binding, anti-His fluorescence; calls only; 17,000 tested, 1.5% active;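 active means spot fluorescence over background with P-value below 7% in all four replicate spots, showing protein binding; compounds were printed on slides so no solution concentration is given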;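 further: score is binary with 100 for all four spots passing and 0 otherwise; about 2 pmol printed per array spot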
# Target sequence (P01106 whole entry, looked up): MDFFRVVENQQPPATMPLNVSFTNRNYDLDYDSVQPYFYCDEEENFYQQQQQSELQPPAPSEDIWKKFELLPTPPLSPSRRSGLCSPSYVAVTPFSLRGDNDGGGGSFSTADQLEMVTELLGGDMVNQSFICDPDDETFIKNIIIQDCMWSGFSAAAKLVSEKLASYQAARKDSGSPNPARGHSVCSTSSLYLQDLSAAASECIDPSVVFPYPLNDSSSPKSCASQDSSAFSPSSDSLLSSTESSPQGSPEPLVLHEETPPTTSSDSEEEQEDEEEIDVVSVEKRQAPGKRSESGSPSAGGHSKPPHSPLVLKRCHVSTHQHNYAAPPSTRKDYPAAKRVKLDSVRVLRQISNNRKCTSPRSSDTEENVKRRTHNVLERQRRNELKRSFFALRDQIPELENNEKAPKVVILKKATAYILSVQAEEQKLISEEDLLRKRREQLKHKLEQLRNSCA
# Calls only; i = inactive; x = no result given; + = active, no number. The list is partial; rates above refer to the full screens.
# Below each SMILES: ID4 SMM | mut p53 SMM | STAT3 binder | Myc binder
- COc1ccc(CN(C)C[C@@H]2Oc3c(NC(=O)c4ccc(-c5nccs5)cc4)cccc3C(=O)N([C@@H](C)CO)C[C@H]2C)cc1
    i | i | i | i
- COc1ccc(CN(C)C[C@H]2Oc3c(NC(=O)NC(C)C)cccc3C(=O)N([C@H](C)CO)C[C@H]2C)cc1
    i | i | i | i
- COc1ccc(COC[C@@]23Oc4ccccc4[C@@H](NC(=O)N2C)[C@H]3COC(=O)c2ccccc2)cc1
    i | i | i | i
- COc1cc(O)cc2occ(-c3ccc(O)cc3)c(=O)c12
    i | i | i | i
- C[C@H](CO)N1C[C@H](C)[C@H](CN(C)CC2CCCCC2)OCc2cn(nn2)CCCC1=O
    i | i | i | i
- CC(C)NC(=O)N(C)C[C@H]1OCCCC[C@@H](C)Oc2ccc(NC(=O)Nc3ccc4c(c3)OCO4)cc2C(=O)N([C@H](C)CO)C[C@@H]1C
    i | i | i | i
- C[C@H](CO)N1C[C@H](C)[C@@H](CN(C)C(=O)NC2CCCCC2)Oc2c(NC(=O)Nc3ccc4c(c3)OCO4)cccc2C1=O
    i | i | i | i
- Cc1cc(C(=O)Nc2cccc3c2O[C@@H](CN(C)CC2CC2)[C@@H](C)CN([C@@H](C)CO)C3=O)n(C)n1
    i | i | i | i
- CCOc1ccc(NC(=O)C2CC=CCC2C(=O)O)cc1 (stereo unspecified)
    i | i | i | i
- C[C@H](CO)N1C[C@H](C)[C@@H](CN(C)C(=O)Nc2ccc(F)cc2)Oc2c(NC(=O)C3CCOCC3)cccc2C1=O
    i | i | i | i
- Cc1[nH]c2ccccc2c1C(=O)CSc1nc2sc(C)c(C)c2c(=O)n1-c1ccccc1
    i | i | i | i
- C[C@@H]1CN([C@H](C)CO)C(=O)c2cc(N(C)C)ccc2O[C@@H](C)CCCCO[C@H]1CN(C)C(=O)Nc1ccccc1
    i | i | i | i
- COc1ccc([N+](=O)[O-])cc1NC(=O)CN(c1ccc(C)cc1)S(C)(=O)=O
    i | i | i | i
- CNC[C@H]1Oc2c(NC(=O)Nc3ccccc3)cccc2C(=O)N([C@@H](C)CO)C[C@@H]1C
    i | i | i | i
- Cc1cc(=O)[nH]c(SCCOc2c(C)ccc(C)c2Cl)n1
    i | i | i | i
- C[C@H]1CCCCO[C@H](CN(C)S(=O)(=O)c2ccc(F)cc2)[C@@H](C)CN([C@@H](C)CO)C(=O)c2cc(NS(C)(=O)=O)ccc2O1
    x | i | i | i
- COc1ccc(S(=O)(=O)Nc2ccc3c(c2)C(=O)N([C@H](C)CO)C[C@H](C)[C@H](CN(C)CC2CC2)O3)cc1
    i | i | i | i
- O=C1c2c(O)cc(O)cc2O[C@@H](c2ccc(O)cc2)[C@H]1[C@@H]1C(=O)c2c(O)cc(O)cc2O[C@H]1c1ccc(O)cc1
    x | i | i | i
- COCCNC(=O)c1cc(-c2cccnc2)nc2ccc(Br)cc12
    i | i | i | i
- C[C@H]1CN([C@@H](C)CO)C(=O)c2cccc(NC(=O)Nc3ccc4c(c3)OCO4)c2O[C@H]1CN(C)Cc1ccc(C(F)(F)F)cc1
    x | i | i | i

# (list continues)
# Below each SMILES: ID4 SMM | mut p53 SMM | STAT3 binder | Myc binder
- COc1c(O[C@@H]2O[C@H](C(=O)O)[C@@H](O)[C@H](O)[C@H]2O)cc(O)c2c(=O)cc(-c3ccccc3)oc12
    i | i | i | i
- O=C(O)c1cccc(S(=O)(=O)NCc2ccco2)c1
    i | i | i | i
- CCCCn1c(=O)c2c(ncn2CC(C)=O)n(CCCC)c1=O
    i | i | i | i
- Cc1noc(C)c1NC(=O)Nc1cccc2c1O[C@@H](CN(C)C)[C@H](C)CN([C@@H](C)CO)C2=O
    i | i | i | i
- C[C@H](CO)N1C[C@H](C)[C@H](CN(C)C)OCCCC[C@H](C)Oc2ccc(NC(=O)Nc3ccc4c(c3)OCO4)cc2C1=O
    i | i | i | i
- CN(C)CCCNC(=O)[C@@]1(c2ccc([N+](=O)[O-])cc2)CC(=O)N(CC23CC4CC(CC(C4)C2)C3)[C@@H]1c1ccc(CO)cc1
    i | i | i | i
- C[C@@H]1CN([C@@H](C)CO)C(=O)Cc2cc(NC(=O)c3ccncc3)ccc2O[C@H]1CN(C)S(=O)(=O)c1ccc(F)cc1
    x | i | i | i
- C[C@@H]1CCCCO[C@@H](CN(C)C(=O)c2ccccc2)[C@@H](C)CN([C@H](C)CO)C(=O)c2cc(NS(=O)(=O)c3ccccc3)ccc2O1
    i | i | i | i
- C[C@H]1CN([C@@H](C)CO)C(=O)c2cccc(NS(=O)(=O)c3cccs3)c2O[C@@H]1CN(C)C(=O)Nc1cccc2ccccc12
    i | i | i | i
- C[C@@H]1CCCCO[C@@H](CN(C)C(=O)c2ccncc2)[C@H](C)CN([C@@H](C)CO)C(=O)c2cc(NC(=O)CCC(F)(F)F)ccc2O1
    i | i | i | i
- O=C(CSc1ncn[nH]1)Nc1ccc(-c2nc3ccccc3s2)cc1
    i | i | i | i
- Cc1noc(C)c1S(=O)(=O)N(C)C[C@H]1Oc2ccc(NS(=O)(=O)c3cccs3)cc2CC(=O)N([C@H](C)CO)C[C@H]1C
    i | i | i | i
- C[C@@H]1CCCCO[C@H](CN(C)C(=O)Nc2ccccc2)[C@H](C)CN([C@@H](C)CO)C(=O)c2cc(NC(=O)Cc3ccccc3)ccc2O1
    i | i | i | i
- O=C1NCc2c1c1c3ccccc3[nH]c1c1[nH]c3ccccc3c21
    x | i | i | i
- C[C@@H]1CN([C@@H](C)CO)C(=O)c2cc(NC(=O)NC3CCCCC3)ccc2O[C@H]1CN(C)Cc1ccc2c(c1)OCO2
    i | i | i | i
- CNC[C@H]1OCCCC[C@H](C)Oc2ccc(N)cc2C(=O)N([C@@H](C)CO)C[C@@H]1C
    i | i | i | i
- Cc1noc(C)c1NC(=O)N(C)C[C@@H]1Oc2c(NC(=O)Nc3ccc(C(F)(F)F)cc3)cccc2C(=O)N([C@H](C)CO)C[C@H]1C
    i | i | i | i
- C=C1CCC2[C@](C)(CCC[C@]2(C)C(=O)O)[C@H]1CC/C(C)=C/C(=O)O (stereo partly specified)
    i | i | i | i
- Cc1ccc2c(c1O)C(=O)c1ccc(O[C@@H]3O[C@H](CO[C@@H]4OC[C@@H](O)[C@H](O)[C@H]4O)[C@@H](O)[C@H](O)[C@H]3O)cc1C2=O
    i | i | i | i
- CCn1c(SCC(=O)Nc2ccc(OC)c(Cl)c2)nnc1-c1ccc(C)cc1
    i | i | i | i

# Additional records.
# Below each SMILES: ID4 SMM | mut p53 SMM | STAT3 binder | Myc binder
- C[C@@H]1CN([C@H](C)CO)C(=O)c2cccc(NC(=O)c3ccc(-c4nccs4)cc3)c2O[C@@H]1CN(C)CC1CC1
    i | i | i | i
- O=c1c2ccccc2cnn1Cc1n[nH]c(=S)n1-c1ccc2c(c1)OCCO2
    i | i | i | i
- Cc1noc(C)c1S(=O)(=O)N(C)C[C@@H]1Oc2ccc(NC(=O)CCCN(C)C)cc2C(=O)N([C@@H](C)CO)C[C@@H]1C
    i | i | i | i
- Cc1cc(C(=O)Nc2cccc3c2O[C@@H](CN(C)CC2CC2)[C@H](C)CN([C@@H](C)CO)C3=O)n(C)n1
    i | i | i | i
- C[C@@H]1CN([C@@H](C)CO)C(=O)c2cc(NC(=O)Cc3ccccc3)ccc2O[C@@H](C)CCCCO[C@@H]1CN(C)C(=O)Nc1ccccc1
    i | i | i | i
- CNC[C@H]1Oc2ccc(N(C)C)cc2C(=O)N([C@@H](C)CO)C[C@@H]1C
    i | i | i | i
- Cc1cc(C(=O)Nc2cccc3c2O[C@H](CN(C)C(=O)NC2CCCCC2)[C@H](C)CN([C@H](C)CO)C3=O)n(C)n1
    i | i | i | i
- COc1ccc(CN(C)C[C@H]2Oc3ccc(NC(=O)Cn4cnnn4)cc3CC(=O)N([C@H](C)CO)C[C@@H]2C)cc1
    i | i | i | i
- Cc1nnc2sc(-c3ccccc3NC(=S)NC(=O)CC34CC5CC(CC(C5)C3)C4)nn12
    i | i | i | i
- C[C@@H]1CN([C@H](C)CO)C(=O)c2cc(NC(=O)Cc3cn(C)c4ccccc34)ccc2O[C@@H]1CN(C)CC1CC1
    i | i | i | i
- Cc1noc(C)c1S(=O)(=O)Nc1ccc2c(c1)C(=O)N([C@H](C)CO)C[C@H](C)[C@@H](CN(C)C(=O)NC1CCCCC1)O2
    i | i | i | i
- CNC[C@H]1Oc2ccc(NC(=O)Nc3ccc4c(c3)OCO4)cc2C(=O)N([C@@H](C)CO)C[C@@H]1C
    i | i | i | i
- C[C@H](CO)N1C[C@H](C)[C@@H](CN(C)C(=O)c2ccccc2)OCc2cnnn2CCCC1=O
    i | i | i | i
- CCOC(=O)C1=C(C)NC(=O)C1(NC(=O)c1cccnc1)C(F)(F)F (stereo unspecified)
    i | i | i | i
- C[C@@H]1CN([C@H](C)CO)C(=O)CCCn2cc(nn2)CO[C@@H]1CN(C)Cc1cccc2c1OCCCO2
    i | i | i | i
- NC(=O)[C@H]1[C@@H]2C(=O)O[C@@H](c3ccccc3)[C@@H](c3ccccc3)N2[C@@H](c2ccccc2OCCO)[C@]12C(=O)Nc1ccccc12
    i | i | i | i
- COc1ccc(NC(=O)Nc2cccc3c2O[C@H](CN(C)Cc2ccc(Oc4ccccc4)cc2)[C@H](C)CN([C@@H](C)CO)C3=O)cc1
    x | i | i | i
- Cc1ccc(NC(=O)CSc2nnc(-c3ccncc3)n2C)c(Br)c1
    i | i | i | i
- C[C@@H]1CN([C@H](C)CO)C(=O)c2cc(NS(=O)(=O)c3cn(C)cn3)ccc2O[C@@H]1CN(C)C(=O)NC1CCCCC1
    i | i | i | i
- Cc1[nH]c(=S)[nH]c(=O)c1Cc1ccc(C(=O)O)o1
    + | i | i | i

# New compounds follow
# Below each SMILES: ID4 SMM | mut p53 SMM | STAT3 binder | Myc binder
- C[C@@H]1CN([C@H](C)CO)C(=O)c2cc(NC(=O)Cc3cn(C)c4ccccc34)ccc2O[C@@H]1CN(C)Cc1ccc(C(=O)O)cc1
    x | i | i | i
- C[C@@H]1CN([C@@H](C)CO)C(=O)c2cc(NS(=O)(=O)c3cccs3)ccc2O[C@@H](C)CCCCO[C@H]1CN(C)C(=O)CCCN(C)C
    i | i | i | i
- COC(=O)c1cc(CO)cc(O)c1C(=O)c1c(O)cccc1O
    x | i | i | i
- O=C(O)C1=C[C@@H](c2ccc3c(c2)OCO3)C[C@@H](OCc2ccc(CO)cc2)O1
    i | i | i | i
- C[C@H]1CCCCO[C@@H](CN(C)C)[C@@H](C)CN([C@@H](C)CO)C(=O)c2cc(NC(=O)Nc3cccc4ccccc34)ccc2O1
    i | i | i | i
- C[C@H](CO)N1C[C@H](C)[C@H](CN(C)Cc2ccc(C(F)(F)F)cc2)Oc2c(NS(C)(=O)=O)cccc2C1=O
    i | i | i | i
- CCCCN1CCC(CCC(=O)c2cc(Cl)c(N)cc2OC)CC1
    i | i | i | i
- C[C@H](CO)N1C[C@H](C)[C@H](CN(C)C(=O)Nc2ccc3c(c2)OCO3)Oc2ccc(NC(=O)Nc3ccc4c(c3)OCO4)cc2CC1=O
    i | i | i | i
- C[C@@H]1CCCCO[C@@H](CN(C)C(=O)Nc2ccccc2)[C@H](C)CN([C@@H](C)CO)C(=O)c2cc(NC(=O)C3CCCCC3)ccc2O1
    i | + | i | +
- Cc1noc(C)c1S(=O)(=O)N(C)C[C@H]1Oc2ccc(NC(=O)Cc3cn(C)c4ccccc34)cc2CC(=O)N([C@@H](C)CO)C[C@@H]1C
    i | i | i | i
- CNC[C@H]1Oc2ccc(NC(=O)Nc3ccc(C(F)(F)F)cc3)cc2CC(=O)N([C@@H](C)CO)C[C@H]1C
    i | i | i | i
- C[C@@H]1CN([C@H](C)CO)C(=O)Cc2cc(NC(=O)Cc3ccccc3)ccc2O[C@H]1CN(C)Cc1ccncc1
    i | i | i | i
- COc1ccc(S(=O)(=O)N(C)C[C@@H]2Oc3ccc(NC(=O)Nc4ccc5c(c4)OCO5)cc3CC(=O)N([C@@H](C)CO)C[C@@H]2C)cc1
    i | i | i | i
- CC(C)NC(=O)Nc1cccc2c1O[C@@H](CN(C)Cc1ccc(C(F)(F)F)cc1)[C@H](C)CN([C@H](C)CO)C2=O
    i | i | i | i
- C[C@@H]1CN([C@@H](C)CO)C(=O)c2cccc(NS(=O)(=O)c3ccc(F)cc3)c2O[C@@H]1CN(C)C(=O)Nc1ccc(F)cc1
    x | i | i | i
- C=C1[C@@H]2CC[C@H]3[C@@]4(C)C(C[C@H](OC(=O)[C@]5(C)O[C@@H]5C)[C@]3(C2)[C@@H]1OC(C)=O)[C@](C)(C(=O)OC)CC[C@H]4OC(C)=O (stereo partly specified)
    x | i | i | i

# Bioassay records (PubChem BioAssay)
